Rango complex inh: qHTS Assay for Inhibitors of Rango (Ran-regulated importin-beta cargo) - Importin beta complex formation; 0.031% of 340,000 active; Potency, µM (series often up to 92.2 µM), for the others: at the top dose inhibition of complex formation; Rango CFP/YFP FRET sensor + importin beta, 45 min; AID 540263, 2011; Importin subunit beta-1 (Homo sapiens), Q14974; active = rising FRET ratio curve, often small or poorly fitted; inconclusive = mostly compound fluorescence or quenching in the first reads; inactive = flat curves in all reads;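 further: potency means the concentration at half of the fitted maximal effect; 0% = DMSO wells and 100% = buffer wells lacking importin beta; nearly all actives have a fitted effect of over 15% in size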
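Inhibition scored from the CFP 486 nm/YFP 530 nm FRET ratio 45 min after adding 0.125 microM importin beta to 50 nM Rango biosensor preincubated 5 min with compound (room temperature, PBS with DTT, Tween-20, BSA). No-importin wells as positive control.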
miR-21 FLuc: qHTS Assay for Modulators of miRNAs and/orActivators of miR-21. HeLa miR-21 FLuc reporter, luciferase, 48 h. AID 2288, 2010. Potency, µM (highest dose often 38.3 µM), for the others: at the top dose reporter change, positive = more light. 340,000 tested, under 10 active; active = well fitted rising curve with a large enough effect; inconclusive = small, poorly fitted or top-dose-only effect; inactive = no such curve, though single readings can be large or run the other way;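 further: % of control where 0% means no effect; miR-21 action dims this reporter so a rising signal means less miR-21 action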
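HeLa cells endogenously expressing miR-21, stably carrying CMV-driven firefly luciferase with a downstream miR-21 binding site, 2000 cells/well. Titrations up to approximately 40 uM, 48 hours; luciferase luminescence read.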
GLA inh pH 4.5: qHTS Assay for Inhibitors of Human alpha-Galactosidase at pH 4.5; Alpha-galactosidase A (Homo sapiens), P06280; purified enzyme, 4-MU-alpha-Gal fluorescence, pH 4.5; activity change, negative = inhibition, % at 105 µM; 230,000 tested, under 10 active; AID 1467, 2008; inconclusive = small, poorly fitted or top-dose-only inhibition, or a rising curve; inactive = flat fitted curve, though single readings scatter; no compound was filed as active;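 further: 0% = full activity with enzyme and -100% = basal without enzyme; dose as in the result columns while the protocol names 77 µM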
Target sequence (P06280 whole entry, looked up): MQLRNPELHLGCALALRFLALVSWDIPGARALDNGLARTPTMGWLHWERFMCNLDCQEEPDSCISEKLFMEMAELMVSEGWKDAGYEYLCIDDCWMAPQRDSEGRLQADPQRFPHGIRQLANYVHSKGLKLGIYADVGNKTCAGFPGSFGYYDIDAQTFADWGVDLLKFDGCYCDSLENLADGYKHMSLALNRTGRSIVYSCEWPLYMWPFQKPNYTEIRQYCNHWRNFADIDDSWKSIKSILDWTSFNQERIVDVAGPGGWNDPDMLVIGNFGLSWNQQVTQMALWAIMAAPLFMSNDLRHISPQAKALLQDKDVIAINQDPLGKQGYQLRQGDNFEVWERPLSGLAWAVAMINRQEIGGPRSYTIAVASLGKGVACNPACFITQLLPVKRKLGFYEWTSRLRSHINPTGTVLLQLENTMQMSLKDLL
Rango release inh: qHTS Assay for Inhibitors of RanGTP induced Rango (Ran-regulated importin-beta cargo) - Importin beta complex dissociation; Snurportin-1 (Homo sapiens) + GTP-binding nuclear protein Ran (Homo sapiens) + Importin …; Biochemical FRET Rango-importin beta, RanGTP-induced dissociation; Potency, µM (titrated, usually from 46.1 µM), for inactives: top-dose activity change, negative = inhibition; 0.071% of 340,000 active; active means falling FRET ratio curve, often poorly fitted, with flat reads before Ran was added; inconclusive means other falling curves, or compound fluorescence or quenching; inactive means flat or rising ratio curve;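 further: potency means the concentration at half of the fitted maximal effect; % of control where 0% means no effect; nearly all actives have a fitted effect of over 45% in size; -100% = wells without RanGTP and RCC1; the record marks most hits as doubtful in a second field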
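Rango (0.1 uM)–importin beta (0.25 uM) complex; RanGTP-RCC1 trigger; 45 min RT; CFP/YFP FRET read.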
The depositor's hits bear a star; ? = inconclusive; nt = not tested or not shown; & = joins results of further samples.

SMILES	Rango complex inh	miR-21 FLuc	GLA inh pH 4.5	Rango release inh
Cc1ccc(Cl)c(OCCN2CCc3ccccc3C2)c1	?	1%	nt	7%
NC(=O)C1CCN(C(=O)CN(c2cccc(C(F)(F)F)c2)S(=O)(=O)c2ccccc2)CC1	-5.5%	-3%	-1	-11%
O=C(NCC1OCCc2ccccc21)c1ccc(NC(=O)c2cccc(Br)c2)cc1 (stereo not given)	4.1%	-3%	1	19%
CCN(C(=O)COC(=O)c1ccc2c(c1)OCO2)c1c(N)n(Cc2ccccc2)c(=O)[nH]c1=O	-4.6%	nt	nt	-2%
NC(=O)c1ccc(N2CCCCC2)c(N2C(=O)C3CC=CCC3C2=O)c1 (stereo not given)	-1.2%	-1%	5	-1%
Clc1cccc2sc(N3CCN(c4ccccc4)CC3)nc12	0.9%	-43%	-4	-21%
CN1C(=O)c2ccc(NC(=O)c3ccc(N4CCCCC4)c([N+](=O)[O-])c3)cc2C1=O	3.2%	-2%	1	1%
Cn1c(=O)c(=O)n(C)c2cc([N+](=O)[O-])c(N3CCOCC3)cc21	-4.1%	1%	nt	28%
CC(C(=O)NC1CCCC1)N1C(=O)c2cccc3cccc1c23 (stereo not given)	?	-4%	nt	?
CC(/C=N\NC(=O)Cn1cncn1)=C/c1ccc(C(C)C)cc1	2.8%	-5%	-3	6%
O=C(C(=O)N1CCCCCC1)c1c[nH]c2ccccc12	6.3%	-9%	nt	-1%
COc1ccccc1OCc1ccc(C(=O)Nc2ccccc2F)cc1	-0.4%	-37%	3	-5%
C[C@H](CO)N1C[C@H](C)[C@@H](CN(C)CC2CCCCC2)Oc2c(NC(=O)Cc3ccccc3)cccc2C1=O	6.9%	nt	nt	13%
CCOC(=O)CNC(=O)CSc1nc(-c2cccc(C)c2)ns1	0.3%	1%	-2	-8%
CC(C)CC(NS(=O)(=O)c1cc(C(=O)O)ccc1Cl)C(=O)O (stereo not given)	?	0%	2	-23%
O=C(CN1C(=O)CSc2ccc(S(=O)(=O)N3CCCCC3)cc21)NCc1ccccc1	2.1%	0%	nt	-10%
O=C(Nc1ccccc1C(=O)O)c1cccc(NS(=O)(=O)c2ccc(Br)cc2)c1	-0.6%	-1%	nt	1%
CN(c1ccccc1)S(=O)(=O)c1ccc(C(=O)NCCc2ccc(F)cc2)cc1	1.2%	5%	nt	-10%
O=C(Nc1nnc(-c2ccncc2)o1)c1ccccc1F	0.4%	-16%	-18	10%
O=C(CN1CCCCC1)N1CCCc2ccccc21	-0.1%	-2%	5	12%
Nc1[nH]c(=O)nc(Nc2ccccc2)c1N=O	-3.3%	nt	nt	-21%
COC(=O)c1ccccc1NC(=O)c1c(O)c2c([nH]c1=O)CCCC2	-4.1%	-5%	14	-20%
COc1ccc(N(CC(=O)N2CCN(c3cccc(Cl)c3)CC2)S(=O)(=O)c2c(C)noc2C)cc1	-0.2%	18%&22%	nt	37%
COCCNC(=O)c1ccc(CS(=O)(=O)c2ccc(OC)cc2)o1	7.1%	-4%	-4	-3%
CC(C)(C)[C@@H]1COC(=O)[C@H](Cc2ccc(F)cc2)CC/C=C\C[C@@H](CC(=O)N(CCO)Cc2ccccc2)C(=O)N1	2.4%	nt	nt	1%

A second format for part of the listing above.
Below each SMILES – Rango complex inh, miR-21 FLuc, GLA inh pH 4.5, Rango release inh
- CN1C(=O)c2ccc(NC(=O)c3ccc(N4CCCCC4)c([N+](=O)[O-])c3)cc2C1=O
→ 3.2%, -2%, 1, 1%
- O=C(Nc1nnc(-c2ccncc2)o1)c1ccccc1F
→ 0.4%, -16%, -18, 10%
- CC(C)CC(NS(=O)(=O)c1cc(C(=O)O)ccc1Cl)C(=O)O (stereo not given)
→ ?, 0%, 2, -23%
- O=C(CN1C(=O)CSc2ccc(S(=O)(=O)N3CCCCC3)cc21)NCc1ccccc1
→ 2.1%, 0%, nt, -10%
- O=C(Nc1ccccc1C(=O)O)c1cccc(NS(=O)(=O)c2ccc(Br)cc2)c1
→ -0.6%, -1%, nt, 1%

(list continues)
SMILES	Rango complex inh	miR-21 FLuc	GLA inh pH 4.5	Rango release inh
Cc1ccccc1OCC(=O)N(Cc1nc(-c2ccccc2)no1)C(C)C	6.7%	-4%	-6	-19%
O=C(CC1CCCC1)NNC(=O)c1ccc(Br)cc1	6.0%	nt	nt	0%
O=C1NCN(c2ccccc2)C12CCN(c1nnnn1-c1ccccc1)CC2	3.9%	-3%	4	-1%
O=C(NC1=NCCS1)c1ccc(N2CCCC2=O)cc1	4.0%	-29%	-7	-12%
Cn1c(=O)c(Sc2ccccc2)c(O)c2ccccc21	-3.2%	4%	14	3%
O=C(CCN1C(=O)/C(=C\c2ccccc2)SC1=S)NNC(=O)c1ccncc1	7.2%	-2%	0	17%
CC(=O)N1N=C(c2ccccc2)CC1c1ccccc1[N+](=O)[O-] (stereo not given)	-0.1%	-16%	2	-2%
CCOC(=O)c1csc(Nc2nc3ccc(F)cc3s2)n1	-1.1%	-6%	-2	-14%
CN1C(=O)OC2(C)CCc3ccccc3C12C (stereo not given)	-6.4%	-1%	1	-9%
Cc1cccc(C)c1NC(=S)Nc1ccc(F)cc1	1.3%	-4%	-1	7%
CCOC(=O)Cn1c(-c2cccnc2Cl)nc2cc(Cl)c(Cl)cc21	0.1%	-1%	4	-1%
CCOc1ccc(NC(=O)[C@H](Cc2ccccc2)NC(=O)C2CCNCC2)cc1	6.0%	0%	nt	2%
COc1cccc(C(=O)/C=C2\Sc3ccccc3N2C)c1	?	-30%	-21	?
CC(C)(C)C(=O)Nc1ccc(C(=O)N/N=C/c2ccccc2OC(=O)c2ccc(Cl)cc2Cl)cc1	-2.1%	24%	3	0%
Cc1cccc(-n2c(Cc3cc(=O)[nH]c(=O)[nH]3)nnc2SC(C)C)c1	-1.8%	-1%	-8	29%
CCOc1ccc(C(Nc2cccnc2)c2cc(Cl)c3cccnc3c2O)cc1 (stereo not given)	5.7%	23%	2	-2%
CCCc1cc(=O)[nH]c(SCC(=O)Nc2cc(S(=O)(=O)N3CCCCC3)ccc2Cl)n1	-2.2%	nt	nt	9%
COc1ccc(-c2nc(N)ncc2-c2ccc(OC)c(OC)c2)c(O)c1	-0.4%	13%	nt	3%
Brc1nnc2n1-c1ccccc1Sc1ccccc1-2	-1.8%	-1%	3	2%
O=C(CN1CCC(NC(=O)c2ccco2)CC1)Nc1cccc2ccccc12	0.0%	-8%	-14	-8%
O=C(CSCc1ccco1)Nc1cc(C(F)(F)F)ccc1N1CCOCC1	-4.6%	-4%	1	6%
Cc1ccc(Sc2ncccc2C(=O)NCc2cc([N+](=O)[O-])ccc2O)c(C)c1	-0.5%	-38%	nt	4%
CCOc1ccc(CN2CCNC(=O)C2CC(=O)NCc2ccccn2)cc1 (stereo not given)	-1.3%	-2%	1	27%
COc1cc(C)c(-c2cc(C(=O)O)c(C)o2)cc1C(C)C	-2.5%	5%	-1	3%
Cc1ccc(C(=O)CSc2nc3ccc(C(=O)NCCN4CCCCC4)cc3c(=O)[nH]2)cc1	2.7%	-10%	5	15%

Whole records as entered above.
O=C(NC1=NCCS1)c1ccc(N2CCCC2=O)cc1 across the screens: Rango complex inh: 4.0%; miR-21 FLuc: -29%; GLA inh pH 4.5: -7; Rango release inh: -12%
Cn1c(=O)c(Sc2ccccc2)c(O)c2ccccc21 across the screens: Rango complex inh: -3.2%; miR-21 FLuc: 4%; GLA inh pH 4.5: 14; Rango release inh: 3%

4 entries from above, as a markdown table:
| structure | Rango complex inh | miR-21 FLuc | GLA inh pH 4.5 | Rango release inh |
| --- | --- | --- | --- | --- |
| O=C(CC1CCCC1)NNC(=O)c1ccc(Br)cc1 | 6.0% | nt | nt | 0% |
| Cc1cccc(C)c1NC(=S)Nc1ccc(F)cc1 | 1.3% | -4% | -1 | 7% |
| O=C(CSCc1ccco1)Nc1cc(C(F)(F)F)ccc1N1CCOCC1 | -4.6% | -4% | 1 | 6% |
| CCOc1ccc(C(Nc2cccnc2)c2cc(Cl)c3cccnc3c2O)cc1 (stereo not given) | 5.7% | 23% | 2 | -2% |

Carrying on:
SMILES	Rango complex inh	miR-21 FLuc	GLA inh pH 4.5	Rango release inh
O=C(CCl)N(O)c1ccc(C=Cc2ccccc2)cc1	-0.2%	nt	nt	-6%
CCCCCCNC(=O)c1cc(-c2ccco2)nc2ccccc12	-0.8%	-5%	12	-14%
Cc1cc2oc(=O)cc(COC(=O)Cn3cnnn3)c2cc1C(C)C	-1.0%	-8%	5	2%
Cc1ccnc(SCC(=O)c2cccs2)n1	3.0%	-57%	12	2%
Cc1cccc(COc2ccc(/C=N/NC(=O)c3nnn(-c4nonc4N)c3C)cc2)c1	-5.3%	-7%	nt	-10%
CC(C)CN1CCC(=O)N([C@H](CSc2ccc(Br)cc2)c2ccccc2)CC1	?	-3%	-10	-18%
Cc1ccc(CNC(=O)C2CCCN(S(=O)(=O)c3ccc(-n4cnnn4)cc3)C2)cc1 (stereo not given)	1.0%	-2%	nt	1%
CCS(=O)(=O)N1CCN(C2CCC(c3ccccc3)CC2)CC1 (stereo not given)	nt	-5%	3	nt
CS(=O)(=O)c1ccc(-c2sc3ccccc3c2C(=O)N2CCN(c3ccc(F)cc3)CC2)cc1	-2.7%	nt	nt	-3%
CCN(c1ccc(C)cc1C)S(=O)(=O)c1nnc(NC(=O)C(C)(C)C)s1	-1.9%	-1%	nt	3%
Cc1cc(=O)oc2cc(OCCSCCN3CCCC3)ccc12	-2.2%	2%	0	1%
Cn1c(-c2cccs2)[n+](C)c2ccccc21	-1.6%	0%	1	9%
COc1ccc(C(=O)Nc2cccc(NC(=O)c3ccc(OC)cc3OC)n2)c(OC)c1	-0.3%	nt	nt	-12%
CCCCn1c(N)c(N(CC(C)C)C(=O)c2cc(-c3ccc(OC)cc3)nc3ccccc23)c(=O)[nH]c1=O	0.2%	nt	nt	-11%
Cc1ccc(CC(NC(=O)c2ccccc2)C(=O)NC(C)C(=O)O)cc1 (stereo not given)	-1.3%	1%	-5	-6%
COc1ccc(Cl)cc1N1C(=O)C2CCCN2C1c1ccc(F)c(F)c1 (stereo not given)	2.9%	-19%	2	31%
Cn1nc(C(F)(F)F)c(C(=O)Nc2cccc(C(F)(F)F)c2)c1SCc1ccc(Cl)cc1	-1.8%	22%	-13	33%
CCC(=O)N/N=C/c1ccc(-c2ccc(Cl)cc2)o1	-0.1%	-48%	13	9%
O=C(NCC1COc2ccccc2O1)c1ccc(NC(=O)c2ccco2)cc1 (stereo not given)	-0.6%	0%	3	0%
O=C(c1ccco1)N1CCN(Cc2cc(=O)c(OCc3cccc(Cl)c3)co2)CC1	-2.2%	nt	nt	-10%
N/C(=N\OC(=O)CCC1CCCC1)c1ccc(Cl)cc1	-0.2%	-4%	nt	-13%
O=[N+]([O-])c1cc(Cl)c(Cl)c(Cl)c1Cl	-4.7%	nt	nt	-11%
CCC(C)(C)NC(=O)C(c1ccccc1F)N(C(=O)c1ccn[nH]1)c1ccccc1 (stereo not given)	5.3%	-4%	-1	-2%

An excerpt (hit frequency here may not be typical).
